# Bioassay records: PubChem BioAssay, National Center for Advancing Translational Sciences (NCATS)
# PINK1 modulator = modulators of PINK1 expression; PINK1 immunofluorescence, high-content cytometry, 24 h; Potency, µM (series often up to 76.6 µM), inactives show top-dose activation (PINK1 increase), actives largely listed as activators; hit rate 0.2% among 410,000; active = well fitted activation curve with a large enough effect; inconclusive = small, poorly fitted or top-dose-only effect; inactive = flat fitted curve, though single readings scatter; cell line not stated here;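 also: potency is read from the fitted curve at half-maximal effect; % of control where 0% means no effect; nearly all actives have a fitted effect of over 65% in size; a mitochondrial uncoupler was the plate control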
#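 A stable cell line was treated with compounds at 5 concentrations for 24 hours, with CCCP as control. PINK1 levels and mitochondrial localization were measured by immunofluorescence with mitochondrial, cell and nuclear markers after fixation, read by laser-scanning cytometry.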
# D2 potentiator = potentiates the human D2 dopamine receptor allosterically; P14416; hit rate 0.23% among 360,000; potentiation, % (concentration not given with the values); DiscoveRx D2 beta-arrestin cells, luminescence, 90 min; 100% = 57 uM dopamine signal; AID 624464; active = potentiation of 50% or more; inconclusive = 30% to 50%; inactive = 30% or less;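 also: compound concentration not given in the record; tested on top of an EC20 dose of dopamine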
#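 PathHunter beta-arrestin assay in DiscoveRx D2 cells. Compounds were added with an EC20 of dopamine (50 nM final) for 90 min at 37 deg C. Luminescence was read 1 h after detection reagent, with 57 uM dopamine as the EC100 control.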
# Six1-Eya2 inh = blocks human Six1 binding to Eya2; AlphaScreen GST-Six1/His-Eya2 binding, biochemical; stronger effect = lower value; control for the full effect not named in the record; activity change, % (no concentration beside the values); hit rate 0.56% among 360,000; in the data active = activity change below about -65%; inconclusive = about -30% to -65%; inactive = above about -30%; also: % is scaled to controls: 0 for no effect and ±100 for the full control effect; compound concentration not given in the record
# Target sequence (O00167 whole entry, looked up): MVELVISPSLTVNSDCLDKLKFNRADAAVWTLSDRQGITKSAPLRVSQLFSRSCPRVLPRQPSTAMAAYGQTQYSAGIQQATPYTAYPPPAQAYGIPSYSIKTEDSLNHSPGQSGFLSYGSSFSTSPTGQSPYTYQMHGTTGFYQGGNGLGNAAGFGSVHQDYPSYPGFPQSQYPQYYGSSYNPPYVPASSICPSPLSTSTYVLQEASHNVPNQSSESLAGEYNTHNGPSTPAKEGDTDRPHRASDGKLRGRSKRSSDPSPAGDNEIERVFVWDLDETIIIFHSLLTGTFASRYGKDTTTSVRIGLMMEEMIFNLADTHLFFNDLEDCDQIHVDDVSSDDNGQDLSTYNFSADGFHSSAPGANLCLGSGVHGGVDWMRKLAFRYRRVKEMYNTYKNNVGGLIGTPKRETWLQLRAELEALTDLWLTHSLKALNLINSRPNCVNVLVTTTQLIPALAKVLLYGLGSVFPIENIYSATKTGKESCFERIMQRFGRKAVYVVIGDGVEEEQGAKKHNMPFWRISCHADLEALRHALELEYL
# Target sequence (Q15475 whole entry, looked up): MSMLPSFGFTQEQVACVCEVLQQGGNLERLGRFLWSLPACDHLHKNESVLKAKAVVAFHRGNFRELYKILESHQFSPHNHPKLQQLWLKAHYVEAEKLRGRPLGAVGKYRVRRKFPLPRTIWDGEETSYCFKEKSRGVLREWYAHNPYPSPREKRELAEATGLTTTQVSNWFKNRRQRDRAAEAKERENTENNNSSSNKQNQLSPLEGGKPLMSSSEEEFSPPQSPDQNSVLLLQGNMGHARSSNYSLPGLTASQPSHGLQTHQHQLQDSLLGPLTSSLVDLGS
#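 Six1/Eya2 binding was read as AlphaScreen signal after compounds were pinned into GST-Six1 plus His-tagged Eya2 (5X stock 250/500 nM) in pH 8.0 Tris/NaCl/TCEP buffer, beads added, then incubated 1 h, 37 C, dark.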
# D2 ag = agonists of human D2 dopamine receptor (beta-arrestin); P14416; DiscoveRx PathHunter D2 beta-arrestin, luminescence, 90 min; 100% = 57 uM dopamine signal; activation, % (test concentration not listed); hit rate 0.084% among 360,000; in the data active = activation above about 40%; inconclusive = about 15% to 40%; inactive = below about 15%; also: compound concentration not given in the record; the text of the record calls up to 30% inactive
#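 Agonist mode: compounds alone added to overnight-plated D2 PathHunter cells for 90 min at 37 C, with 57 uM final dopamine (EC100) defining full response. Beta-arrestin recruitment detected by chemiluminescent reagent, read after 1 h at ambient temperature.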
# CtBP-E1A blk = inhibitors of CtBP/E1A interaction; AlphaScreen GST-E1A/His-CtBP binding, 1536-well; stronger effect = lower value; control for the full effect not named in the record; activity change, % (concentration not given with the values); hit rate 0.49% among 340,000; AID 651724; in the data active means activity change below about -65%; inconclusive means about -30% to -65%; inactive means above about -30%; also: % is scaled to controls: 0 for no effect and ±100 for the full control effect
#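 Homogeneous bead-based format: GST-tagged E1A captured on glutathione donor beads, His-tagged CtBP on nickel acceptor beads; compounds precede bead addition by 2 h at 37 °C.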
# Sfp PPTase inh = inhibitors of Bacillus subtilis Sfp phosphopantetheinyl transferase; Biochemical Sfp PPTase activity, qHTS; Potency, µM, without a hit: max response, negative = inhibition, usual class: inhibitors; hit rate 3.5% among 310,000; AID 1490; active = well fitted inhibition curve with a large enough effect; inconclusive = small, poorly fitted or top-dose-only effect, or another doubt; inactive = no such curve, though single readings can be large or run the other way;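 also: the enzyme is Sfp with the accession as filed and its product quenches rhodamine fluorescence; potency is read from the fitted curve at half-maximal effect; 0% = enzyme reaction without inhibitor and -100% = no enzyme wells; top concentration of the series not given in the record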
#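 After 15 min at room temperature with compound, 15 nM Sfp received 5 uM rhodamine-CoA plus 12.5 uM BHQ-2-ybbR (50 mM Hepes pH 7.6, 10 mM MgCl2). Rate came from the fluorescence difference over 30 min, ex 525/em 598 nm.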
# TRPV1 potentiator = potentiators of human vanilloid receptor 1 (TRPV1); Q8NER1; TRPV1-expressing cells, Fluo-8 calcium influx, capsaicin EC20 potentiation; host cell line not named in the record; control for the full effect not named in the record; potentiation, % at 8.33 µM; hit rate 0.02% among 320,000; active means potentiation above 80%; inconclusive means 30% to 80%; inactive means below 30%; also: 0% is about no effect
#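 TRPV1-expressing cells were cultured overnight at 35.5C and loaded with Fluo-8 calcium dye for 40 to 90 min at room temperature. After a 10 s baseline, compound was added and calcium influx was read kinetically for 3 min (ex 480/em 520 nm).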
# The depositor's hits bear a star; ? = inconclusive; . = no result given; & = joins results of further samples; [ ] = another dose, or the depositor's remark.
# Order of values – PINK1 modulator	D2 potentiator	Six1-Eya2 inh	D2 ag	CtBP-E1A blk	Sfp PPTase inh	TRPV1 potentiator
- CN1CCN(c2ccc(NC(=O)CSc3nnnn3-c3ccccc3Cl)cc2)CC1
  -0.3%	-22.6	-5.1	0.5	-19.6	-6.6%	4.9
- O=c1cc(O)nc(SCc2ccccc2)n1-c1ccccc1
  -16.8%[38.3 µM]	0.1&-12.2	2.0&-3.1	-1.6&-2.5	6.2&11.2	-1.2%&-23.9%	8.7&2.1
- CC(C)N(CCNS(=O)(=O)c1ccc(Cl)cc1)C(C)C
  .	-10.3	0.8	-3.1	9.3	-9.9%	?
- O=C(NCc1ccccc1)C(=O)Nc1nccs1
  0.7%	18.8	19.9	3.5	-13.0	-13.4%	-6.4
- Cc1cccc(Nc2nc(N)nc(CN3CCN(c4ccc(F)cc4)CC3)n2)c1
  -1.4%	-16.1	-24.9	1.7	?	11.1%	-3.7
- CCOc1ccc(CCNC(=O)COC(=O)CCc2cc(OC)c(OC)c(OC)c2)cc1OCC
  -0.4%	2.5	-4.1	-3.0	4.7	.	4.4
- CCN(CC(=O)NCc1cccs1)C(=O)c1cccc(S(=O)(=O)Nc2ccc(OC)cc2)c1
  -4.8%	-19.5	-4.0	-3.8	-0.4	.	2.4
- CC1(C(=O)NS(=O)(=O)Cc2ccccc2)CCN1C(=O)Cc1ccccc1 (stereo unspecified)
  -0.1%	-3.5	14.2	-3.1	0.9	.	.
- COc1ccc(NC(=O)CSc2nc3c(c(=O)n(C)c(=O)n3C)n2C)c(OC)c1
  0.0%	-5.5	1.8	-3.7	-2.1	14.2%	13.2
- O=C1[C@@H]2CSCN2C(=O)CN1Cc1ccc(F)cc1
  -1.0%	-8.7	3.1	0.2	-4.7	20.7%	-10.9
- CN1C(=O)C2(c3ccccc31)N(C)CC(c1ccccc1)C21SC(=S)N(Cc2ccco2)C1=O (stereo unspecified)
  10.8%[38.3 µM]	-15.3	-10.8	-0.7	-13.1	-14.9%	-2.5
- COc1cc(C2C3=C(CC(c4ccco4)CC3=O)Nc3ccccc3N2C(C)=O)cc(OC)c1OC (stereo unspecified)
  -0.1%	20.8	-6.4	0.0	0.0	17.8µM*	-3.2
- Cc1cc(C)c2c(-n3cccc3)c(C(=O)NNS(=O)(=O)c3ccc(Cl)cc3)sc2n1
  -3.7%	1.5	-1.4	0.0	-2.9	13.3%	.
- O=C(COC(=O)c1cc(-c2cccs2)nn1-c1ccccc1)Nc1cc([N+](=O)[O-])ccc1Cl
  2.1%	-0.4	-1.1	2.9	3.4	-10.8%	-10.6
- COc1cc2nc(NC(=O)c3ccccc3)[nH]c(=O)c2cc1OC
  5.0%	-39.8	-28.2	-5.9	-29.9	32.8%[activator]	?
- O=C1NC[C@H](CCCCN2C[C@H](Cc3ccccc3)N(CCC3CCCCC3)C(=O)C2=O)N(CC2CCCCC2)C1=O
  1.0%	.	3.6	.	13.2	.	.
- Cc1cccc(C(=O)NN(C)c2nc(-c3ccccc3)nnc2C(F)(F)F)c1
  5.1%	-3.2	6.0	-0.3	2.2	25.0%	-0.3
- CCCc1cc(=O)oc2cc(C)cc(OCC(=O)NCCCN3CCCC3=O)c12
  1.7%	5.9	0.9	3.2	0.9	7.6%	4.7
- CCn1nnnc1SCC(=O)Nc1cc(C)on1
  0.9%	22.1	5.1	0.4	5.6	13.3%	-1.3
- Cc1cc(C)n(-c2nc3ccccc3c(=O)n2OCc2ccc(Cl)cc2)n1
  4.5%	-2.4	-0.3	-3.9	1.4	0.7%	-15.9

# Carrying on.
molecule	PINK1 modulator	D2 potentiator	Six1-Eya2 inh	D2 ag	CtBP-E1A blk	Sfp PPTase inh	TRPV1 potentiator
CCn1ncc([C@@H]2C[C@H]3CN(Cc4ccccc4C)C(=O)[C@]34CCCN24)c1C	-0.3%	-7.2	-1.5	-3.1	.	11.8%	-1.2
c1ccc(CCCc2nc(-c3ccccn3)no2)cc1	2.3%[38.3 µM]	-0.9	0.3	-1.7	-2.9	6.5%	-11.4
CCc1ccc(Oc2ncnc(N)c2[N+](=O)[O-])cc1	-0.3%	-3.5	-1.6	0.9	3.4	24.6%	-4.2
Clc1ccc2c(NCc3ccccn3)ccnc2c1	-0.1%	-14.6	-12.1	1.9	-20.2	7.1%	14.1
CC1CCCN(C(=O)CN(c2ccccc2)S(=O)(=O)c2ccc(F)cc2)C1 (stereo unspecified)	0.5%	-0.7	5.2	5.9	6.5	.	-20.0
COc1ccc(-c2cnc3c(NC=O)cc(-c4ccc(S(C)(=O)=O)cc4)cn23)cc1OC	6.7%	1.7	-3.5	3.7	-0.8	.	.
CCOc1ccc(NC(C(=O)Nc2cccc(C(C)=O)c2)c2ccccc2)cc1 (stereo unspecified)	2.1%	-14.6	?	-4.0	9.4	9.3%	7.9
CC1Cc2cc(S(=O)(=O)N3CCN(c4ccccc4)CC3)ccc2N1C(=O)C1CC1 (stereo unspecified)	1.3%	-4.0	9.8	-8.8	.	0.4%	0.5
COC(=O)N1C(=O)[C@@](c2ccccc2)(C(C)C)N1C(=O)OC	1.4%	-30.2	0.9	0.4	1.5	3.7%	-17.1
Cc1nnsc1C(=O)Nc1ccc(S(=O)(=O)N2CCC(C)CC2)cc1	5.1%	-6.2	4.7	4.9	-4.0	7.9%	-10.1
COc1ccc(NC(=O)COC(=O)/C=C/c2ccc(OC)c(S(=O)(=O)N3CCOCC3)c2)cc1	?	-34.0	0.4	-4.5	-1.4	7.0%	10.5
Cc1ccc(S(=O)(=O)N2CCN(C(=O)COC(=O)c3ccc(C(C)(C)C)cc3)CC2)c(C)c1	-1.3%	-6.5	0.6	2.0	3.1	3.0%	3.6
Cc1cc2nc(-c3ccc[nH]c3=O)n(Cc3ccccc3F)c2cc1C	-0.3%	-9.1	0.1	0.4	7.6	3.0%	-10.0
O=C(CCNC(=O)c1ccco1)Nc1ccc(F)c(Cl)c1	-0.3%	-10.7	10.8	-2.9	-10.0	13.9%	14.5
C=CCN(C(=O)c1csnn1)C(C(=O)NCc1ccc(F)cc1)c1ccc(F)cc1 (stereo unspecified)	2.4%	-9.8	-3.2	-2.3	6.5	3.2%	-4.8
CCOC(=O)C(=NCC1CCCO1)NNc1ccccc1Cl (stereo unspecified)	3.6%	-17.6	4.2	-6.7	-7.4	-7.6%	-18.5
COc1cccc(NC(=O)NNC(=O)CN2C(=O)COc3ccccc32)c1	-0.9%	4.0	1.3	1.6	-14.4	14.7%	0.7
O=C(CSc1nc2ccsc2c(=O)n1CC1CCC(C(=O)O)CC1)NCCc1ccc(Cl)cc1 (stereo unspecified)	0.7%	2.4	4.0	1.3	2.3	-1.5%	2.3
COc1ccc(-c2c(C)n([O-])c3c([n+]2=O)CCCC3)cc1	2.1%[38.3 µM]	-12.8	3.0	-3.1	2.2	7.6%	2.3
O=C(CCC(=O)Nc1ccc(Oc2ccccc2)cc1)NCCO	8.5%	-4.5	-4.7	-1.2	6.0	17.6%	24.7
CCN1CCN(C(=S)NC(=O)c2cccs2)CC1	0.5%	-3.5	16.1	-1.9	3.6	-24.2%	18.5
Cc1cc(C)c(N2C(=O)CCCC2=O)c(Cl)c1	-0.5%	-4.9	-3.2	-1.7	-3.8	0.6%	?
Oc1ccc(/C=N/N2CCOCC2)c(O)c1O	1.2%	54.2*	-5.6	?	-16.6	10µM*	-8.2
O=C1CC[C@H](O)CCN1[C@H](CSc1ccccc1)Cc1ccccc1	-0.7%	-8.2	-2.8	2.0	-6.8	9.9%	-13.5
COc1cc(C(=O)NCCC(C)C)c([N+](=O)[O-])cc1OC	-5.0%[38.3 µM]	-15.1	21.6	-1.0	60.5	22.7%	-15.5
Cc1cccc(N2CCN(C(=O)C3CCN(c4ncnc5c4nc4n5CCCCC4)CC3)CC2C)c1 (stereo unspecified)	-1.4%&-0.3%	28.4	-11.9	8.3	-8.5	2.9%	5.2
O=C(CN1C(=O)NC(Cc2ccccc2)C1=O)Nc1ccccc1OC(F)F (stereo unspecified)	0.3%	11.4	6.4	-3.4	-2.2	.	3.2
Cc1ccc(S(=O)(=O)Cc2ccc(C(=O)N3CCN(c4cc(C)ccc4C)CC3)o2)cc1	?	-12.8	-3.7	0.0	-0.7	4.8%	1.0
Cc1cccc(S(=O)(=O)N(C)C[C@@H]2OCc3cnnn3CCCC(=O)N([C@H](C)CO)C[C@@H]2C)c1	0.3%	.	1.4	-0.6	-19.8	.	.
Cc1nnn(-c2nonc2N)c1C(=O)NNC(=O)c1ccc(Cl)c(Cl)c1	4.1%	-6.5	3.1	-6.5	-5.8	17.5%	2.8

# 4 neighbouring records out of the list so far:
molecule	PINK1 modulator	D2 potentiator	Six1-Eya2 inh	D2 ag	CtBP-E1A blk	Sfp PPTase inh	TRPV1 potentiator
CCOC(=O)C(=NCC1CCCO1)NNc1ccccc1Cl (stereo unspecified)	3.6%	-17.6	4.2	-6.7	-7.4	-7.6%	-18.5
COc1cccc(NC(=O)NNC(=O)CN2C(=O)COc3ccccc32)c1	-0.9%	4.0	1.3	1.6	-14.4	14.7%	0.7
O=C(CSc1nc2ccsc2c(=O)n1CC1CCC(C(=O)O)CC1)NCCc1ccc(Cl)cc1 (stereo unspecified)	0.7%	2.4	4.0	1.3	2.3	-1.5%	2.3
COc1ccc(-c2c(C)n([O-])c3c([n+]2=O)CCCC3)cc1	2.1%[38.3 µM]	-12.8	3.0	-3.1	2.2	7.6%	2.3

# Profiles from above. Order of values: PINK1 modulator	D2 potentiator	Six1-Eya2 inh	D2 ag	CtBP-E1A blk	Sfp PPTase inh	TRPV1 potentiator
# `Cc1cccc(N2CCN(C(=O)C3CCN(c4ncnc5c4nc4n5CCCCC4)CC3)CC2C)c1` (stereo unspecified) as listed: -1.4%&-0.3%	28.4	-11.9	8.3	-8.5	2.9%	5.2
# `COc1ccc(-c2c(C)n([O-])c3c([n+]2=O)CCCC3)cc1` as listed: 2.1%[38.3 µM]	-12.8	3.0	-3.1	2.2	7.6%	2.3
